# eIF4H FP inh: inhibitors of RNA binding by human eIF4H. eIF4H fluorescence polarization binding assay. inhibition, % at 35 µM. Q15056. 290,000 tested, 0.94% active;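 active means 50% or more with normal probe brightness, or confirmed in later tests; about a fifth of its hits are not listed in these tables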;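 further: calls also rest on retests at 20 µM and on dose response follow-up; 0% = protein and probe with vehicle and 100% = probe without protein; strong numbers were not always called active; many hits fall short of the cut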
# MT1-MMP act inh: MT1-MMP (human) activation inhibition. 360,000 tested, 0.061% active. HT1080 RFP-PRO-GFP cells, GFP/RFP ratio fluorescence, overnight; percent of plate control window, DMSO zero. P50281. GFP/RFP ratio change, % at 20 µM. AID 651647;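 active means GFP/RFP ratio change of at least 30% with cell ATP level not reduced by more than half and red fluorescence within 50% of control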; further: strong numbers were not always called active
#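 Assay system: HT1080 RFP-PRO-GFP cells | Dosing: 20 µM single dose, 1% DMSO | Incubation: Cells overnight before dosing, compound overnight, 37 °C, 5% CO2 | Evaluation: GFP/RFP fluorescence ratio | Control set: DMSO-only wells and HT1080 RFP-L50D-GFP cell wells as references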
# HIV Env fusion: inhibitors of HIV Env-mediated cell fusion; HeLa-JRFL Env/CEM21 cell fusion, luciferase; inhibition, % at 12.3 µM; 360,000 tested, 1.1% active; AID 651610;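 active means mean replicate inhibition score of at least 50 and every replicate individually at or above 50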;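 further: 0% = plate neutral controls and 100% = maraviroc near 300 nM; one replicate is shown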
# Rce1 inh: inhibitors of yeast Ras-converting enzyme; yeast membranes, quenched prenylated peptide cleavage fluorescence; AID 2563; calls only; 290,000 tested, 0.27% active;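 active means fall in fluorescence gain of 50% or more versus controls, with final raw signal at or below 3038400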;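 further: plate controls were neutral control wells for no effect and wells lacking membranes for full effect; tested at 10 µM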
# Target sequence (Q03530 whole entry, looked up): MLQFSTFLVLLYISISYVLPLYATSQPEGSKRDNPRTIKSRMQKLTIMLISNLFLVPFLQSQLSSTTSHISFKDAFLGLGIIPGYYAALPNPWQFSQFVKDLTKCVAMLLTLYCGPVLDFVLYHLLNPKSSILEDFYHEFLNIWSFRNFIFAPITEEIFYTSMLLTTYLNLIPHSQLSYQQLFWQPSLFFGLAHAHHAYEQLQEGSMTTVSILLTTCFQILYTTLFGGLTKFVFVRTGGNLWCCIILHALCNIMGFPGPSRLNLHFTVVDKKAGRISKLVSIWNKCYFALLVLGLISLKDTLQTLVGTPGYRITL
# UUG fidelity: alters start codon recognition fidelity in yeast; activity score, % at 18.7 µM; 350,000 tested, 0.13% active; S. cerevisiae UUG-firefly luciferase reporter, luminescence/redox ratio;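 active means replicate mean at a twofold rise or more, about +100% in these data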;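 further: firefly luciferase made from a UUG start codon reports start codon fidelity; reporter light over untreated wells divided by growth signal over untreated wells; some hits fall short of that in this replicate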
# PABP FP inh: blocks human PABP binding to poly(A) RNA; P11940; fluorescence polarization; AID 2014; 290,000 tested, 1% active; inhibition, % at 35 µM;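 active means 50% or more with normal probe brightness, or confirmed in later tests; about a fifth of its hits are not listed in these tables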;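 further: calls also rest on retests at 20 µM and on dose response follow-up; controls were probe without protein and protein plus probe with vehicle; some compounds called inactive have numbers as strong as hits; many hits fall short of the cut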
# CSC inhib: cancer stem cell inhibition | inhibition, % at 7.5 µM | cancer stem cell-like cells viability, luminescence | 300,000 tested, 1.1% active;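 active means mean at 75% or more and at least half the replicates too; tested in HMLE shEcad cells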;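 further: 0% = median of negative and 100% = median of positive control wells; the first replicate is given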
# eIF4H FP inh retest: further read-out of eIF4H FP inh, marked with its call; inhibition, %; compound at 20 µM; confirmation average;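 mean of two retest wells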
# PABP FP inh retest: recorded beside PABP FP inh, whose call it bears; inhibition, %; compound at 20 µM; confirmation repeats;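 mean of two retest wells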
# MT1-MMP act inh RFP: further read-out of MT1-MMP act inh, marked with its call; RFP signal change, %; measured here: RFP expression control read;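 0 = vehicle wells; hits needed this value within 50% of zero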
# * marks the source's active call; other numbers are inactive results; i = inactive; x = no result given; + = active, no number. Compounds were not picked by outcome. About 2.9% of those tested had a hit in this group.
SMILES,eIF4H FP inh,MT1-MMP act inh,MT1-MMP act inh RFP,HIV Env fusion,Rce1 inh,UUG fidelity,PABP FP inh,CSC inhib,others
Cc1ccc(C(=O)OCc2c(C)noc2C)cc1NC(=O)c1ccco1,7,3,5,8,i,x,-3,-9,
O=C(C1CCCO1)N1CCC(O)(c2ccccc2)CC1 (stereo not given),-5,-1,0,-39,i,-16,-5,-28,
COc1cc(NC(=O)c2ccc3c(SCC(=O)O)c4c(nc3c2)CCCC4)cc(OC)c1OC,-8,4,7,16,i,x,10,-10,
Cc1cccc(NC(=O)c2cccc(OC(=S)N3CCOCC3)c2)c1,7,4,-6,-7,i,-6,0,-7,
COc1cccc(-c2cc(C(=O)Nc3cccnc3)c3ccccc3n2)c1,12,-11,-3,-12,i,-22,-2,13,
CC1=CC(c2ccccc2)n2nc(N3C(=O)C4CC=CCC4C3=O)nc2N1 (stereo not given),-8,9,4,-56,i,-7,0,-4,
COc1ccc(C2N3CC4(C)CN2CC(C)(C3)C4=O)cc1OC (stereo not given),-7,15,-1,-10,i,-26,-6,x,
CCOC(=O)c1nn(-c2ccc(F)cc2)c(=O)cc1OCC(=O)N1CCN(c2ccccc2)CC1,x,-4,-2,-11,i,-14,x,1,
Cc1cccc(OCC(=O)Nc2ccc(S(=O)(=O)Nc3cc(C)nc(C)n3)cc2)c1,-10,4,3,12,i,-7,-2,-16,
O=C(/C=C\c1cn(-c2ccccc2)nc1-c1ccc2c(c1)OCCO2)N1CCOCC1,9,x,x,42,i,2,5,6,
O=C1CC(c2ccccc2Br)c2cc3c(cc2N1)CCC3 (stereo not given),-2,x,x,x,i,x,-6,67,
O=[N+]([O-])c1ccc(NC2CCCCC2)nc1,x,-1,-2,-5,x,0,x,x,
COC(=O)c1ccc(Nc2cc(C)nc3nc(C)nn23)cc1,0,10,6,-18,i,-20,38,-5,
N#Cc1cnn2c(-c3cccc([N+](=O)[O-])c3)ccnc12,x,-1,-2,x,x,-15,x,6,
CCNc1nc(SCC(=O)OC)nc(N(C)C)n1,14,-3,5,-24,i,x,0,-6,
CC(C)N(C(=O)CSc1nnc(-c2cc3ccccc3cc2O)n1Cc1ccco1)C(C)C,11,-7,-2,-32,i,-8,-5,-7,
O=C1c2ccccc2N2C(=O)c3ccccc3C2N1Cc1ccco1 (stereo not given),0,-3,0,x,i,-13,4,-9,
COc1ccc(C(=O)COC(=O)CN2C(=O)NC(C)(C)C2=O)cc1OC,-11,2,2,-70,i,-15,2,-6,
Cc1ccc(CNC(=O)c2ccc3c(c2)NC(=O)C(N2CCOCC2)S3)cc1 (stereo not given),61,-4,-7,3,i,-7,-11,-5,eIF4H FP inh retest=35;PABP FP inh retest=-4
CCOCCCNC(=S)N1CCCN(c2nc3c(C)c(C)ccc3cc2C#N)CC1,-7,-1,-6,28,i,x,11,x,

# The closing 3 records of the part above come first, to join the parts:
SMILES,eIF4H FP inh,MT1-MMP act inh,MT1-MMP act inh RFP,HIV Env fusion,Rce1 inh,UUG fidelity,PABP FP inh,CSC inhib,others
COc1ccc(C(=O)COC(=O)CN2C(=O)NC(C)(C)C2=O)cc1OC,-11,2,2,-70,i,-15,2,-6,
Cc1ccc(CNC(=O)c2ccc3c(c2)NC(=O)C(N2CCOCC2)S3)cc1 (stereo not given),61,-4,-7,3,i,-7,-11,-5,eIF4H FP inh retest=35;PABP FP inh retest=-4
CCOCCCNC(=S)N1CCCN(c2nc3c(C)c(C)ccc3cc2C#N)CC1,-7,-1,-6,28,i,x,11,x,
COC(=O)CSc1nc(NC(C)C)nc(N2CCOCC2)n1,-2,2,4,x,i,6,16,-6,
COc1ccc(N/C=C/C(=O)C(C)(C)C)cc1,2,-2,-1,10,i,4,-5,18,
Cc1cccc(NC(=O)CN2C(=O)c3ccccc3C2=O)c1C,9,1,1,4,i,x,-2,11,
COc1ccc(S(=O)(=O)NCc2ccc(F)cc2)cc1OC,-2,3,3,10,i,5,-2,-14,
COc1ccc(CCC(=O)OCC(=O)c2cccc(OC)c2)cc1,-14,-6,3,0,i,x,-6,-2,
Cc1cc(C)c(NC(=O)CNC(=O)COC(=O)Cc2ccccc2C)c(C)c1,x,1,6,x,x,-18,x,-4,
COc1cc2ccccc2cc1C(=O)N1CCN(c2ccccc2O)CC1,x,-8,-6,7,x,-9,x,-16,
CC(NS(=O)(=O)c1cc(C(F)(F)F)ccc1Cl)C(=O)N(C)C1CCN(C)CC1 (stereo not given),x,0,6,-1,x,-14,x,-11,
COC(=O)Nc1c(C(=O)OC)cc(OC)c(OC)c1OC,1,6,7,x,i,-23,-3,x,
Cc1cc(N=Nc2c(O)c3ccccc3[nH]c2=O)ccc1N=Nc1ccc(C(=O)N(C)C)cc1,25,2,2,-20,i,-15,9,x,
CCn1nccc1C(=O)Nc1cc(Cl)ccc1Cl,4,1,4,x,i,-19,-1,-7,
O=C(Nc1nc(-c2ccccc2)cs1)c1ccc(S(=O)(=O)N2CCc3ccccc32)cc1,3,-2,-24,44,i,-17,3,16,
Cc1[nH]c2ccccc2c1N=Nc1ccc(F)cc1,-2,-2,3,-9,i,x,-4,72,
CCCCn1c(N)c(N(CCC(C)C)C(=O)c2cc(CC)c(C)s2)c(=O)[nH]c1=O,x,-1,-1,9,i,x,x,-10,
Cc1ccc(S(=O)(=O)CCC(=O)OCC(=O)Nc2cc(C)on2)cc1,4,0,1,x,i,-4,-3,-2,
Cc1ccccc1C(=O)N1CCC(C(=O)NN2C(=O)NC3(CCC(C)CC3)C2=O)CC1 (stereo not given),x,-1,3,-1,x,-2,x,-11,
CC(NC(=O)c1cc2c(=O)n3ccccc3nc2n(CC2CCCO2)c1=N)c1ccccc1 (stereo not given),-6,0,2,-4,x,-7,-1,5,
Cc1cc(-c2ccccc2)nc(N(C)NC(=O)c2cccc(C(F)(F)F)c2)c1S(C)(=O)=O,4,-12,-6,x,i,-6,-1,-5,
Cn1c(SCC(=O)N2CCCCC2)nnc1-c1ccc(S(=O)(=O)N2CCOCC2)cc1,7,9,4,-8,i,-17,8,4,
O=C(CS(=O)(=O)c1ccc(C(F)(F)F)cn1)NNC(=O)c1ccccc1,-5,-4,-6,-1,i,-20,-5,-1,
O=C(CSc1nc(-c2ccccc2)cc(=O)[nH]1)N1CCOCC1,-3,-3,0,-1,x,-6,-12,x,
CC(=O)c1ccc(NC(=O)c2ccc(NC(=O)CCS(=O)(=O)c3cccs3)cc2)cc1,-8,-1,-3,-11,i,-16,-7,-10,
Nc1nc2c(ncn2[C@@H]2O[C@H](CNS(=O)(=O)c3cccnc3)[C@@H](O)[C@H]2O)c(=O)[nH]1,x,-2,5,0,x,-14,x,x,
CNc1nc(OC)nc(N2CCOCC2)n1,-4,-2,1,-25,i,-12,8,-11,
Cc1ccccc1CCNC(=O)CCn1nc(C)c2c(C)n(-c3ccccc3)nc2c1=O,3,-1,1,8,i,2,4,-16,
O=C(c1cc(C2CC2)on1)N1CCN(C(c2ccccc2)c2ccccc2)CC1,7,-9,-10,-30,i,-18,-8,8,
COc1ccc(OC)c2sc(NC(=O)c3ccc(Cl)s3)nc12,4,-1,-2,23,i,-11,-4,13,
COc1ccccc1NC(=S)N(CCCN1CCOCC1)Cc1cccs1,-3,-9,-4,-3,i,x,-5,-9,
Cc1cccc(-n2c(N)cc(=O)[nH]c2=S)c1C,-3,15,-2,x,i,60,13,-3,
N#Cc1ccsc1NC(=O)CN1CCN(c2ccccc2)CC1,-3,0,3,18,i,x,34,-10,
COc1ccc(C(=O)Nc2ccc3nc(N4CCCCC4)cc(C)c3c2)cc1OC,-9,8,3,15,i,-2,50,39,
Cc1ccc(NC(=O)CCC(=O)N/N=C/c2cccs2)cc1,-5,-3,-2,23,i,x,-9,-7,
Cc1cccc(N=Nc2cnc(N)s2)c1,16,3,-1,-37,i,-19,11,40,
CC(=O)c1cc(-c2ccccc2)n(CC(=O)N2CCC(N3CCCCC3)CC2)c1C,-12,-1,-5,x,i,x,2,x,
CCN(CC)CCCNC(=O)c1ccccc1NC(=O)C1=CSCCO1,8,-9,1,12,i,-25,-3,-1,
C=CCOc1cccc(C2C(C(=O)c3ccc(C)o3)=C(O)C(=O)N2CCN2CCOCC2)c1 (stereo not given),x,-2,4,-3,x,4,x,x,
CN(C(=O)CN(c1ccccc1)S(=O)(=O)c1ccc(F)cc1)C1CCS(=O)(=O)C1 (stereo not given),53,3,6,8,i,-9,-3,1,eIF4H FP inh retest=-5;PABP FP inh retest=0
CN1C(=O)/C(=C/c2cccc(Cl)c2)Sc2ccc(C(=O)N3CCOCC3)cc21,-4,3,-7,-1,+,-9,-8,13,
CC(=O)c1nn(-c2ccc(Cl)cc2)cc1C(=O)c1ccc(C)cc1,x,3,0,-6,i,-9,x,1,
COc1ccc(NS(=O)(=O)c2cc(NC(=O)COc3ccc(OC)cc3)ccc2N2CCOCC2)cc1,x,0,-1,3,x,-10,x,-5,
CCC1CCCCN1CCCNC(=O)C1CC(=O)N(CCc2ccccc2)C1 (stereo not given),56,1,2,-1,i,-22,15,-7,eIF4H FP inh retest=-4;PABP FP inh retest=20
O=C(O)COCC(=O)NC1CCN(Cc2ccccc2)CC1,3,1,3,8,i,-21,11,-3,
CCCCn1c(N)c(N(CC)C(=O)c2ccccc2C(F)(F)F)c(=O)[nH]c1=O,-5,3,9,5,i,-18,-4,x,
CCOC(=O)c1ccc2c(c1)nc(SCc1cn3ccsc3n1)n2CC,7,5,0,x,i,-13,-1,-10,

# Structures listed so far that contain a halogen (13):
SMILES,eIF4H FP inh,MT1-MMP act inh,MT1-MMP act inh RFP,HIV Env fusion,Rce1 inh,UUG fidelity,PABP FP inh,CSC inhib,others
CCOC(=O)c1nn(-c2ccc(F)cc2)c(=O)cc1OCC(=O)N1CCN(c2ccccc2)CC1,x,-4,-2,-11,i,-14,x,1,
O=C1CC(c2ccccc2Br)c2cc3c(cc2N1)CCC3 (stereo not given),-2,x,x,x,i,x,-6,67,
COc1ccc(S(=O)(=O)NCc2ccc(F)cc2)cc1OC,-2,3,3,10,i,5,-2,-14,
CC(NS(=O)(=O)c1cc(C(F)(F)F)ccc1Cl)C(=O)N(C)C1CCN(C)CC1 (stereo not given),x,0,6,-1,x,-14,x,-11,
CCn1nccc1C(=O)Nc1cc(Cl)ccc1Cl,4,1,4,x,i,-19,-1,-7,
Cc1[nH]c2ccccc2c1N=Nc1ccc(F)cc1,-2,-2,3,-9,i,x,-4,72,
Cc1cc(-c2ccccc2)nc(N(C)NC(=O)c2cccc(C(F)(F)F)c2)c1S(C)(=O)=O,4,-12,-6,x,i,-6,-1,-5,
O=C(CS(=O)(=O)c1ccc(C(F)(F)F)cn1)NNC(=O)c1ccccc1,-5,-4,-6,-1,i,-20,-5,-1,
COc1ccc(OC)c2sc(NC(=O)c3ccc(Cl)s3)nc12,4,-1,-2,23,i,-11,-4,13,
CN(C(=O)CN(c1ccccc1)S(=O)(=O)c1ccc(F)cc1)C1CCS(=O)(=O)C1 (stereo not given),53,3,6,8,i,-9,-3,1,eIF4H FP inh retest=-5;PABP FP inh retest=0
CN1C(=O)/C(=C/c2cccc(Cl)c2)Sc2ccc(C(=O)N3CCOCC3)cc21,-4,3,-7,-1,+,-9,-8,13,
CC(=O)c1nn(-c2ccc(Cl)cc2)cc1C(=O)c1ccc(C)cc1,x,3,0,-6,i,-9,x,1,
CCCCn1c(N)c(N(CC)C(=O)c2ccccc2C(F)(F)F)c(=O)[nH]c1=O,-5,3,9,5,i,-18,-4,x,

# High-throughput results: PubChem, several laboratories
